Screening data from PubChem BioAssay.
2A firefly – FMDV 2A StopGo reporter, firefly signal; HEK cells with a luciferase reporter of 2A StopGo recoding; Potency, µM (series often up to 57.5 µM), inactives show top-dose signal change, negative = less light; hit rate 0.23% among 120,000; AID 1745856; active = well fitted falling curve with a large enough effect; inconclusive = small, poorly fitted or top-dose-only effect; inactive = no such curve, though single readings can be large or run the other way; further: nearly all actives have a fitted effect of over 60% in size; overnight with compound
2A Renilla – FMDV 2A StopGo reporter, Renilla signal; HEK cells with a luciferase reporter of 2A StopGo recoding; AID 1745857; hit rate 0.32% among 120,000; Potency, µM (highest dose often 57.5 µM), without a hit: at the highest dose signal change, negative = less light; active means well fitted falling curve with a large enough effect; inconclusive means small, poorly fitted or top-dose-only effect; inactive means no such curve, though single readings can be large or run the other way; further: nearly all actives have a fitted effect of over 55% in size; overnight with compound
* hit, by the source's call; ? = inconclusive; & = joins results of further samples; [ ] = another dose, or the depositor's remark. On the % scale 0 is the no-effect control and ±100 the full control effect; potency means the concentration at half of the fitted maximal effect. A portion of the library. The share of hits here may be higher or lower than overall.

SMILES	2A firefly	2A Renilla
Cc1cccc(C(=O)NC2=NC(c3ccc(Cl)cc3)CC(=O)N2)c1 (centres undefined)	0.0%	2.3%
Cc1cc(C(=O)Nc2nc(-c3ccc(C)c(C)c3)c(C)s2)no1	14.7%	4.5%
CCC(=O)N1CCc2cc(CNC(=O)Nc3ccc(OC)cc3OC)ccc21	0.0%	-17.3%
COc1ccc(Nc2nnc(-n3nc(C)cc3C)c3ccccc23)cc1	-13.1%	-21.2%
CCCN1C(SCC(=O)Nc2ccc(OC)c(OC)c2)=NS(=O)(=O)c2ccccc21	-25.9%	-25.4%
COCCN(Cc1ccco1)C(=O)c1cc2c(=O)[nH]c3ccc(C)cc3c2s1	-0.7%	9.5%
CCN(CC)C(CNS(=O)(=O)c1cccs1)c1ccsc1 (centres undefined)	43.8%[activator]	30.7%
N#Cc1ccc2[nH]cc(C=O)c2c1	6.3%	5.6%
CC1CCC(Nc2ncnc3onc(-c4ccc(F)cc4)c23)CC1 (centres undefined)	0.7%	9.1%
CCCCc1nn2c(=O)cc(COC(=O)c3ccco3)nc2s1	-7.0%	-7.2%
CC(C)C[C@H](NC(=O)NCCc1ccccc1F)C(=O)O	5.9%	-7.9%
Cc1nc(-c2ccc(S(=O)(=O)N3CCN(c4ccc(F)cc4)CC3)cc2)co1	-30.2%&2.0%	-27.3%&6.3%
COc1ccc(CNC(=O)CSc2ncc(S(=O)(=O)c3ccc(Br)cc3)c(=O)[nH]2)cc1	-5.8%	-10.0%
COCC(C)NC(=O)Cn1nc(C)c2ccccc2c1=O (centres undefined)	1.7%	-4.4%
CCCCCCn1nc(C(=O)OCC(=O)Nc2ccc(C)c(F)c2)c2ccccc2c1=O	17.7%	14.0%
COc1ccc(Cn2nccc2NC(=O)c2cc(=O)c3cc(C)ccc3o2)cc1	25.5%	19.2%
COc1cccc(-c2nc(-c3ccc4c(c3)CCC4)cs2)c1OC	32.8%[activator]	-2.2%
CC(Oc1ccccc1)C(=O)Nc1ccc(OCc2ccccc2)cc1 (centres undefined)	12.6%	-1.7%[1.06 µM]
CCOc1ccc(Nc2oc(-c3ccc(OCC)cc3)nc2C#N)cc1	15.2%	-0.7%
COc1ccc(NC(=O)CSc2nnc3ccccn23)cc1S(=O)(=O)N1CCCCC1	5.3%	6.2%
O=C(NCc1cccnc1)c1ccc(/C=C/c2ccc3ccccc3n2)cc1	?	?
COc1ccc(OC)c(NC(=O)CSC2=Nc3ccccc3C3=NC(CCC(=O)NCCc4ccccc4)C(=O)N23)c1 (centres undefined)	-19.4%	-5.2%
Cc1ccc(-c2noc(-c3ccc(Br)o3)n2)cc1	208.3%[activator]	0.3%
O=C1/C(=C/c2cccnc2)Cc2c(Cl)cccc21	81.5%[activator]	23.4%
CC(=O)Nc1ccc(/C=C/c2nc(-c3ccccc3O)n(-c3ccccc3)n2)cc1	-8.8%	8.0%
COc1cccc(C(=O)OCc2nc3ccccc3o2)c1O	118.8%[activator]	2.0%
CCOc1cc(C#N)c(NC(=O)c2cccc(S(=O)(=O)N3CCOCC3)c2)cc1OCC	-8.2%	17.7%
O=C(CC1C=CCC1)N(Cc1ccncc1)C1CC1 (centres undefined)	-0.2%	-8.8%
COc1cc(CSc2c(C(C)C)cnc3c2c(=O)n(C)c(=O)n3C)cc(OC)c1	4.7%	-1.3%
O=C(/C=C/c1ccccc1)OCC(=O)c1ccc(Br)s1	15.0%	9.4%
COC(=O)C1=C(CS(=O)(=O)c2ccc(C)cc2C)NC(=O)NC1c1ccc(O)cc1 (centres undefined)	3.0%	-1.1%
COc1ccc(OCCn2c(C)nc3ccccc32)cc1	?	?
COc1ccc2cc(CN(C)C(=O)CNC(=O)c3ccccc3F)ccc2c1	0.0%	4.3%
Cc1cc(C)c(NC(=O)CCc2c(C)nc3c(c(C)nn3C(C)(C)C)c2C)c(C)c1	-13.9%	-1.9%
Cc1cn(C)c(CC(=O)NCc2ccccc2Cl)c1C(=O)O	-2.6%	4.1%
COc1ccccc1C(=O)NC1(C(F)(F)F)C(=O)Nc2c1c(=O)[nH]c(=O)n2-c1ccc(F)cc1 (centres undefined)	39.6%[activator]	41.2%[activator]

Ordered by molecular weight (lowest first): 3 of the compounds above
SMILES	2A firefly	2A Renilla
COc1cccc(-c2nc(-c3ccc4c(c3)CCC4)cs2)c1OC	32.8%[activator]	-2.2%
CCC(=O)N1CCc2cc(CNC(=O)Nc3ccc(OC)cc3OC)ccc21	0.0%	-17.3%
CCOc1cc(C#N)c(NC(=O)c2cccc(S(=O)(=O)N3CCOCC3)c2)cc1OCC	-8.2%	17.7%

Next results follow.
SMILES	2A firefly	2A Renilla
CC1CCC(COC(=O)C[N+]2(C)CCCCC2)C(C)C1 (centres undefined)	-9.6%	-9.3%
CCN(CC)CCCNC(=O)Cc1ccc(NC(=O)N2CCCCc3ccccc32)cc1	-11.4%	-13.0%
CCOc1ccccc1N1CCN(CC(=O)Nc2c(Cl)cccc2Cl)CC1	5.5%	4.8%
COc1cc(NC(=O)CSc2ncc(S(=O)(=O)c3ccc(Br)cc3)c(=O)[nH]2)cc(OC)c1	-0.8%	-1.0%
COc1ccc(C(=O)NCC(=O)OCC(=O)c2ccc(Cl)cc2)cc1OC	5.0%	-8.0%
COc1ccc(/C=C/c2nc(C#N)c(NC3CCCCC3)o2)cc1OC	99.9%&43.0%[activator]	39.5%&34.8%[activator]
Cn1c(CCN2CCCCC2)nc2cc(NC(=O)c3ccccc3)ccc21	35.2%[activator]	-10.9%
CCCSc1nnc2c(n1)OC(CC)N(C(C)=O)c1ccccc1-2 (centres undefined)	-8.8%	-4.9%
O=C1CSC2(C(=O)N(Cc3c(F)cccc3Cl)c3ccccc32)N1c1ccc(F)c(F)c1 (centres undefined)	-4.8%	1.7%
CCCN1CCN(c2nnc(-n3cccc3CN3CCN(Cc4ccccc4)CC3)s2)CC1	6.1%	-19.1%
Cc1c(Cl)cccc1NC(=S)NCC1(N(C)C)CCCCC1	-9.9%	-6.9%[1.06 µM]
CCCc1cc(=O)oc2c3c(ccc12)OCN(Cc1ccccc1OC)C3	-6.5%	4.7%

Rewritten bar-delimited: five of the compounds above.
SMILES | 2A firefly | 2A Renilla
CCCSc1nnc2c(n1)OC(CC)N(C(C)=O)c1ccccc1-2 (centres undefined) | -8.8% | -4.9%
CCCN1CCN(c2nnc(-n3cccc3CN3CCN(Cc4ccccc4)CC3)s2)CC1 | 6.1% | -19.1%
CC1CCC(COC(=O)C[N+]2(C)CCCCC2)C(C)C1 (centres undefined) | -9.6% | -9.3%
Cn1c(CCN2CCCCC2)nc2cc(NC(=O)c3ccccc3)ccc21 | 35.2%[activator] | -10.9%
CCCc1cc(=O)oc2c3c(ccc12)OCN(Cc1ccccc1OC)C3 | -6.5% | 4.7%

New compounds follow.
SMILES	2A firefly	2A Renilla
COc1cccc(C(=O)Oc2ccc(C)c(C)c2)c1	4.9%	2.4%
CCCNc1nc(-c2ccc(Cl)cc2)c(CC(=O)O)s1	26.8%	11.5%
CC(C)CNc1nc(-c2ccc(S(=O)(=O)N3CCOCC3)cc2)cs1	?	?
COc1ccc2c(C)c(-c3ccccc3)c(=O)oc2c1	143.2%[activator]	53.4%[activator]
CCCc1cc(=O)[nH]c(SCc2nc(-c3ccc(C)c(F)c3)no2)n1	-5.2%	-3.4%
COC(=O)c1cc(NC(=O)N2CCc3[nH]cnc3C2c2ccc(Cl)cc2)ccc1Cl (centres undefined)	-3.0%	0.2%
CCn1c2ccccc2c2nnc(N3CCN(c4ccc(F)cc4)CC3)nc21	-14.0%	-12.5%
CCS(=O)(=O)N1CC(=O)N(c2ccc(C(C)C)cc2)C(C)(C(=O)NCc2ccc(F)cc2)C1 (centres undefined)	-12.4%	-1.7%
COc1cc(-c2nnc(CSc3nc(C4CC4)n(-c4ccccc4)n3)o2)cc(OC)c1OC	?	?
CCCCn1c(CCC(=O)Nc2cccc(C)c2C)nc2c1c(=O)[nH]c(=O)n2CCC	10.3%	28.4%
Cc1nn(C(=O)c2c(F)cccc2F)c(C)c1S(=O)(=O)N1CCCCCC1	-6.7%	-4.6%
O=C(CSc1nccn1-c1cccc(Cl)c1)Nc1ccc2c(c1)OCO2	-6.9%	14.5%
Cc1ccc2c(c1)c(=O)c(C(=O)c1ccc3c(c1)OCO3)cn2Cc1cccc(F)c1	-17.3%	24.3%
COc1cc(/C=C/C(=O)OCC(=O)OC2CC(C)CCC2C(C)C)cc(OC)c1OC (centres undefined)	1.2%	-4.9%
COc1ccc(NC(=O)CSc2oc(-c3ccco3)nc2S(=O)(=O)c2ccccc2)c(OC)c1	16.3%	29.3%
COc1cccc(-c2ocnc2C(=O)NCc2ccc(OC)cc2OC)c1	4.7%	6.4%
COCCn1c(N2CCN(Cc3ccccc3)CC2)nc2c1c(=O)[nH]c(=O)n2C	17.1%	3.6%
CC1C(=O)N2CCCc3cc(S(=O)(=O)N(C)c4ccccc4)cc1c32 (centres undefined)	-1.1%	10.7%
C/C(=N/Nc1ccnc2cc(Cl)ccc12)c1cccc(N)c1	0.0%	6.2%
Cc1ccc(C)c(NC(=O)C(Cc2ccccc2)N2Cc3ccccc3C2=O)c1 (centres undefined)	?	-33.6%
N#Cc1nc(-c2ccccc2)oc1N1CCOCC1	33.5%[activator]	16.3%
CC(=O)c1ccc(NS(=O)(=O)c2cc3[nH]c(=O)c(=O)[nH]c3cc2C)cc1	10.7%	-4.1%
CC(C)(C)C(=O)c1cn(CCOc2ccccc2F)c2ccccc12	67.6%[activator]	-8.8%
CCC1CCCCN1CCCNC(=O)c1ccc2c(c1)N(Cc1ccccc1F)C(=O)c1ccccc1S2(=O)=O (centres undefined)	-18.4%	57.5%[activator]
CC(NC(=O)c1cc(=O)[nH]c2ccccc12)c1ccccc1 (centres undefined)	2.3%	6.3%
COc1ccc([N+](=O)[O-])c2cccnc12	19.1%	4.0%
COc1ccc(N2CCN(CCCNC(=O)C3COc4ccccc4C3)CC2)cc1 (centres undefined)	8.2%	6.6%
CC(=O)CSc1nc(-c2ccccc2)[nH]c1S(=O)(=O)c1ccc(C)cc1	1.7%	161.0%[activator]
O=C(Cc1c(F)cccc1Cl)NCCC12CC3CC(CC(C3)C1)C2	90.4%[activator]	71.2%[activator]
COc1ccc(N(C(=O)COc2c(C)cccc2C)S(=O)(=O)c2ccc(Cl)cc2)cc1	-15.0%	89.9%[activator]
O/N=C/c1ccc(OC(F)F)cc1	46.2%[activator]	29.1%
C=CCOc1nc2c(c(=O)n(Cc3ccc(Cl)cc3)c(=O)n2C)n1C	-1.7%	-1.5%
CCc1ccc(NC(=O)CSC2=Nc3ccccc3C3=NC(CC(=O)NCc4cccs4)C(=O)N23)cc1 (centres undefined)	-23.4%	-11.5%
Ic1cc2c(-c3ccccc3)c(-c3ccccc3)[nH]c2c2ccccc12	0.0%	0.0%
CCNC(=O)c1ccc(NC(=O)N2CCCCc3ccccc32)cc1	-3.8%	-10.9%
CC(C)(C)NC(=O)c1ccc(NC(=O)c2cc(=O)[nH]c3ccccc23)cc1	23.7%	1.5%
CCc1ccc(-n2c(=O)c3ccc(C(=O)NCCc4ccccc4)cc3n(Cc3ccccc3C#N)c2=O)cc1	-1.9%	7.4%
CC12CN3CC(C)(C[N+](C)(C3)C1)C2=O	-7.2%	-4.6%
Cc1ccc(N(CC(=O)N2CCN(c3ccccc3F)CC2)S(=O)(=O)c2c(C)noc2C)cc1	-16.7%	4.5%
O=C(NCCc1cccs1)c1ccc(Cn2c(SCc3ccc(F)cc3)nc3cccnc32)cc1	89.1%[activator]	2.1%
O=C(NC1CC(=O)N(c2ccccc2)C1)c1ccco1 (centres undefined)	-22.1%	-0.3%
COc1ccccc1Cc1nc2ccccc2nc1SCC(=O)Nc1cc(Cl)ccc1OC	-18.3%	-17.4%
O=C(O)CCCCCNC(=O)Cn1ccc2ccc(Cl)cc21	14.0%	-3.3%
CCCCCn1c(=O)[nH]c2cc(C(=O)N3CCN(c4cccc(Cl)c4)CC3)ccc2c1=O	-7.7%	-0.4%
Cn1nc(C(=O)N2CCN(c3ccccc3)CC2)c2c1-c1ccccc1S(=O)(=O)C2	-7.9%	11.6%
CCN(CC)c1cc(NC2CCCCC2)c2c3c(onc13)-c1ccccc1C2=O	-14.9%	-12.3%
COc1ccc2[nH]c(C(=O)N3CCc4ccccc4C3)c(C)c2c1	0.7%	27.9%
NC(CO)C(=O)OCc1ccccc1 (centres undefined)	23.0%	23.3%
COC(=O)C1=C(CS(=O)(=O)c2ccc(C)cc2C)NC(=O)NC1c1ccc(C)cc1 (centres undefined)	-11.8%	-4.2%
CC(NC(=O)CSc1ncc(-c2ccccc2)o1)C1CC1 (centres undefined)	105.7%[activator]	-5.6%
CCc1cccc2c(C(=O)CSc3nc4ccccc4o3)c[nH]c12	53.0%[activator]	16.1%
O=C(CSc1cn(CCNC(=O)c2ccccc2F)c2ccccc12)Nc1ccccc1F	-1.4%	0.0%
O=C(COC(=O)Cc1n[nH]c(=O)c2ccccc12)NCC(=O)Nc1ccc(F)c(F)c1F	2.3%	5.2%
CCn1c(CCCOc2ccc(Cl)cc2C)nnc1SCc1ccc(Cl)cc1	?	?
Cc1ccc(-c2csc(Nc3ccccn3)n2)cc1C	46.2%[activator]	-30.4%
Cc1ccc(-c2cc(Nc3ccccc3)nc(C)n2)cc1	216.3%[activator]	7.9%
COc1cccc(-n2nnc(-c3nc(-c4cccs4)no3)c2N)c1	125.6%[activator]	8.0%
CC(C)(C)c1ccc(CSc2nc3c(c(=O)[nH]2)CCCC3)cc1	6.8%	-11.6%
CCOC(=O)c1cc(S(=O)(=O)Nc2ccc3c(c2)OCCO3)[nH]n1	-24.0%	0.0%
O=C(NCc1ccccc1)c1nc(-c2cccc3[nH]ccc23)no1	0.0%	221.5%[activator]
Cc1ccc(S(=O)(=O)N(C)C)cc1NC(=O)c1ccc2ccccc2n1	100.3%[activator]	-4.9%
COc1ccc(CCNc2nc3c(-c4cccc(C)c4)nnn3c3ccccc23)cc1OC	-0.5%	-16.3%
CCCC(C)NC(=O)c1ccccc1C (centres undefined)	71.5%[activator]	3.0%
